# Screens (PubChem BioAssay)
# Cruzain inh Det – blocks cruzain activity in presence of Triton detergent; purified cruzain, Z-FR-AMC fluorescence, 0.01% Triton; 200,000 compounds, 0.43% hits; P25779; Potency, µM, without a hit: max response, negative = inhibition, most hits filed as inhibitors; AID 1478; active = well fitted curve in the direction sought with a large enough effect; inconclusive = small, poorly fitted or top-dose-only effect, or another doubt; inactive = no such curve, though single readings can be large; an effect the other way counts as inactive or inconclusive;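 also: plate controls were neutral wells for no effect and buffer without enzyme for full effect; nearly all actives have a fitted effect of over 40% in size; top concentration of the series not given in the record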
# Target sequence (P25779 123-467 limits assumed): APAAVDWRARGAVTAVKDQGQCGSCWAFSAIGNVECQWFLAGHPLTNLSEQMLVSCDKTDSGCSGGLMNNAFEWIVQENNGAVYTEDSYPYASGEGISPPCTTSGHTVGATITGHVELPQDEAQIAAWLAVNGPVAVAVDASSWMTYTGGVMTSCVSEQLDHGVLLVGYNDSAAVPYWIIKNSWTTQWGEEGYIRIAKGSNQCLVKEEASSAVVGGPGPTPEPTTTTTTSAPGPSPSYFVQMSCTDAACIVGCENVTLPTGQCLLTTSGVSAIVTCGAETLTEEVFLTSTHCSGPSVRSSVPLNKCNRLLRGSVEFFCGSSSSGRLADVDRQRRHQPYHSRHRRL
#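 Z-FR-AMC hydrolysis (2 uM substrate) by cruzain (1.5 nM) monitored kinetically at ex 360/em 450 nm after 15 min room-temperature compound exposure; 0.01% Triton X-100, pH 5.5, 5 mM DTT.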
# Lassa entry inh – inhibitors of Lassa virus binding or cell entry; Lassa virus pseudotype entry inhibition, cell reporter; control for the full effect not named in the record; Potency, µM (titrated, usually from 37.9 µM), for the others: at the highest dose activity change, negative = inhibition, hits mostly inhibitors; 300,000 compounds, 1.2% hits; AID 540256; active means well fitted inhibition curve with a large enough effect; inconclusive means small, poorly fitted or top-dose-only effect, or effect the other way; inactive means flat fitted curve, though single readings scatter; tested in HEK293 cells; also: % is scaled to controls: 0 for no effect and ±100 for the full control effect; nearly all actives have a fitted effect of over 50% in size; luciferase read-out
# Cruzain noTriton – blocks cruzain activity in detergent-free assay | P25779 | purified cruzain, Z-FR-AMC fluorescence, no detergent | Potency, µM, for inactives: max response, negative = inhibition, most hits filed as inhibitors | 200,000 compounds, 2.3% hits; active = well fitted curve in the direction sought with a large enough effect; inconclusive = small, poorly fitted or top-dose-only effect, or another doubt; inactive = no such curve, though single readings can be large; an effect the other way counts as inactive or inconclusive;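 also: plate controls were enzyme without inhibitor for no effect and buffer without enzyme for full effect; nearly all actives have a fitted effect of over 40% in size; top concentration of the series not given in the record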
#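 Detergent-free condition (0.00005% Triton X-100) in acetate buffer pH 5.5 with DTT. 1.5 nM enzyme and compound were pre-mixed 15 min, then 2 uM Z-FR-AMC substrate added; reaction progress from fluorescence change between first and third reads (60 s).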
# SARS PLP yeast – SARS-CoV PLP inhibition in yeast; S. cerevisiae expressing SARS-CoV PLpro, growth rescue; control for the full effect not named in the record; Potency, µM (series often up to 32.9 µM), without a hit: top-dose activity, positive = growth rescue; 330,000 compounds, 0.19% hits; also: 0% is about no effect; nearly all actives have a fitted effect of over 55% in size; growth read by luminescence after 48 h
# NS1 inh – inhibitors of influenza NS1 protein function; S. cerevisiae slowed by influenza A NS1, growth recovery by OD600; Potency, µM (titrated, usually from 46.1 µM), without a hit: top-dose activity, positive = more growth; 270,000 compounds, 0.4% hits; AID 2326; also: actives are rising curves; nearly all actives have a fitted effect of over 50% in size
#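 S. cerevisiae expressing influenza A NS1, grown in glucose, washed, then diluted 1:100 into pH 6.0 -URA galactose medium with 23 nl compound. Growth recovery read as OD600; NS1-free strain serves as control.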
# MARV entry inh – blocks Marburg virus binding to or entry into cells | Marburg virus pseudotyped entry inhibition, cell reporter; control for the full effect not named in the record; about a third of the inactives were read at about 46 µM | Potency, µM (top dose mostly 37.8 µM), for inactives: at the top dose activity change, negative = inhibition, actives largely listed as inhibitors | 300,000 compounds, 1.8% hits | AID 540276; active = well fitted inhibition curve with a large enough effect; inconclusive = small, poorly fitted or top-dose-only effect, or effect the other way; inactive = flat fitted curve, though single readings scatter; tested in HEK293 cells; about a fifth of its hits are not listed in these tables; also: % is scaled to controls: 0 for no effect and ±100 for the full control effect; luciferase read-out
# RE007 growth inh – less growth of the S. pombe RE007 Vpr strain; S. pombe RE007 Vpr strain, BacTiter-Glo ATP luminescence, 24 h; control for the full effect not named in the record; Potency, µM (doses to about 92.2 µM), inactives show top-dose activity change, negative = less growth; 360,000 compounds, 0.21% hits; AID 651644; active = well fitted falling curve with a large enough effect; inconclusive = small, poorly fitted or top-dose-only effect; inactive = no such curve, though single readings can be large or run the other way;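 also: % is scaled to controls: 0 for no effect and ±100 for the full control effect; nearly all actives have a fitted effect of over 50% in size; the assay follows cell death caused by Vpr and the record does not say whether a fall means rescue or toxicity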
#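 Fission yeast strain RE007, carrying one chromosomally integrated HIV-1 vpr copy, was seeded at OD 0.01 in PMG+AL medium with 23 nL pinned compound. After 24 h at 30 °C and 99% humidity, viability was read by BacTiter-Glo luminescence.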
# StopGo reporter – lowers the luciferase signal of an FMDV 2A StopGo reporter; 410,000 compounds, 1.2% hits; Potency, µM (titrated, usually from 57.9 µM), without a hit: at the highest dose signal change, negative = less light; human cells with a luciferase reporter of 2A StopGo recoding; control for the full effect not named in the record; active = well fitted falling curve with a large enough effect; inconclusive = small, poorly fitted or top-dose-only effect; inactive = no such curve, though single readings can be large or run the other way; tested in HEK293T cells; also: % is scaled to controls: 0 for no effect and ±100 for the full control effect; nearly all actives have a fitted effect of over 45% in size; luciferase light after 4 h
# An asterisk follows results filed as active; ? = inconclusive; · = no result given; [ ] = another dose, or the depositor's remark. Unless noted, calls follow the shape of the dose curve; as a rule, active means well fitted rising curve with a large enough effect; inconclusive means small, poorly fitted or top-dose-only effect; inactive means no such curve, though single readings can be large or run the other way. Potency is read from the fitted curve at half-maximal effect.
no.	canonical_smiles	Cruzain inh Det	Lassa entry inh	Cruzain noTriton	SARS PLP yeast
1	COc1ccc(C2C3C(=O)N(N(C)c4ncc(C(F)(F)F)cc4Cl)C(=O)C3ON2C)cc1 (stereo not drawn)	·	-1%[46.1 µM]	·	-3%
2	CC(C(=O)NCc1ccccc1)N1C(=O)CN(C)C(=O)c2ccccc21 (stereo not drawn)	3.7%	-3%	-5%	3%
3	COc1cccc(CC2(CO)CCCN(Cc3cn[nH]c3-c3ccccc3)C2)c1 (stereo not drawn)	·	-35%[46.1 µM]	·	2%
4	COc1ccc(NC(=O)CN(C)C(=O)Cc2c[nH]c3ccccc23)cc1	·	-2%	·	-6%
5	CN(c1nc(-c2ccc(Br)cc2)cs1)C1CCS(=O)(=O)C1 (stereo not drawn)	·	8%[46.1 µM]	·	-2%
6	Cn1ccnc1SCC(=O)Nc1cccc2ccccc12	-1.0%	18%	1%	3%
7	O=C(C1CCC(=O)N1Cc1ccccc1Cl)N1CCN(c2cccc(Cl)c2)CC1 (stereo not drawn)	-4.5%	?	?	0%
8	Cn1c(=O)c(-c2ccccc2[N+](=O)[O-])c(Cl)c2ccccc21	·	7%	·	-4%
9	COc1cc(C)c(Br)cc1S(=O)(=O)NCCN1CCOCC1	·	-17%	·	0%
10	O=C1CC(c2ccccc2Cl)C2=C(COC2=O)N1 (stereo not drawn)	3.9%	2%	-3%	0%

no.	NS1 inh	MARV entry inh	RE007 growth inh	StopGo reporter
1	·	-19%	-12%	19%
2	-6%	8%	22%	5%
3	2%	?	2%	1%
4	·	5%	9%	-9%
5	·	?	-15%	3%
6	-3%	?	9%	20%
7	-31%	3%	-11%	-28%
8	-15%	-8%	-1%	-12%
9	8%	15%[46.1 µM]	-6%	31%[activator]
10	-9%	4%	0%	-7%

# The list goes on.
no.	canonical_smiles	Cruzain inh Det	Lassa entry inh	Cruzain noTriton	SARS PLP yeast
11	O=C(NC1CCCC1)C1C2C=CC3(CN(Cc4cccs4)C(=O)C13)O2 (stereo not drawn)	-1.3%	-1%	-6%	-5%
12	COc1cccc(C(=O)NC(=O)Nc2ccc(-n3nc(C(F)(F)F)cc3C(F)(F)F)cc2)c1	-1.3%	5%[46.1 µM]	-4%	·
13	Cc1c(Cl)cccc1NS(=O)(=O)c1ccc2[nH]cc(C(=O)NC3CCCC3)c(=O)c2c1	-12%	-20%[46.1 µM]	?	·
14	O=C(c1ccc(COc2c(F)c(F)cc(F)c2F)o1)N1CCN(c2ccccc2)CC1	-15%	?	0%	0%
15	Cc1ccc(C(=O)NCCN2CCN(C(=O)c3ccc(C)c(C)c3)CC2)cc1C	·	-3%[46.1 µM]	·	-3%
16	CCc1ccc(NC(=S)N2CCN(S(=O)(=O)c3ccccc3)CC2)cc1	·	?	·	-1%
17	OCCc1c[nH]c2ccccc12	·	·	·	4%
18	CN(C)CCCN1C(=O)C(=O)/C(=C(/O)c2ccc3c(c2)OCCO3)C1c1ccco1 (stereo not drawn)	-0.6%	·	-1%	7%
19	O=C(N/N=C/c1cccc(O)c1)c1cc(-c2ccc3c(c2)OCO3)n[nH]1	-6.4%	·	0%	-6%
20	CCOC(=O)CNC(=S)SC	·	5%	·	-1%

no.	NS1 inh	MARV entry inh	RE007 growth inh	StopGo reporter
11	?	6%	-4%	-18%
12	·	9%[46.1 µM]	·	-3%
13	·	?	·	18%
14	-5%	?	1%	-18%
15	-3%	-11%[46.1 µM]	4%	-1%
16	5%	9%[46.1 µM]	-4%	47%[activator]
17	-1%	·	-7%	55%[activator]
18	-3%	·	·	·
19	-7%	·	1%	2%
20	1%	7%[46.1 µM]	10%	-10%

# (continued)
no.	canonical_smiles	Cruzain inh Det	Lassa entry inh	Cruzain noTriton	SARS PLP yeast
21	O=C(O)CCn1c(O)c(C=C2N=c3ccccc3=N2)sc1=S	·	·	·	0%
22	CN1CCc2nc3sc(C(=O)Nc4c(F)cccc4F)c(N)c3cc2C1	-23%	21%[46.1 µM]	?	·
23	COc1ccc(Nc2ncc(C(=O)N3CCC(C(N)=O)CC3)c3ccccc23)cc1	-6.7%	0%	2%	-2%
24	COc1cccc(Nc2sc(C(=O)c3ccc(F)cc3)c(N)c2C(=O)NCc2ccc(C)cc2)c1	-0.4%	?	?	·
25	CCOC(=O)c1sc(=NC(=O)c2ccc(S(=O)(=O)N(C)c3ccccc3)cc2)n(C)c1C	·	23%	·	-3%
26	COc1ccc(C(=O)O/N=C(\C)c2nccs2)cc1	·	4%	·	-2%
27	CC(C)C[C@@H](CN=[N+]=[N-])N1CCN(Cc2ccccc2)CCC1=O	·	·	·	-1%
28	Cn1cccc1CC(=O)NNC(=S)Nc1ccc(F)cc1	-2.6%	0%	8%	9%
29	CS(=O)(=O)Nc1ccccc1C(=O)N1CCOCC1	-0.6%	-1%	2%	·
30	CCCc1nc2ccccc2c(C(=O)O)c1CC	1.6%	0%	-10%	-4%

no.	NS1 inh	MARV entry inh	RE007 growth inh	StopGo reporter
21	2%	·	-24%	10µM*
22	·	-25%[46.1 µM]	·	15%
23	5%	-27%	-1%	14%
24	·	·	·	14µM*
25	·	10%	7%	0%
26	-51%	-3%[46.1 µM]	-16%	61%[activator]
27	0%	·	-16%	?
28	?	-5%[46.1 µM]	10%	27%
29	9%	?	14%	-24%
30	21%	?	14%	-5%

# Later entries.
no.	canonical_smiles	Cruzain inh Det	Lassa entry inh	Cruzain noTriton	SARS PLP yeast
31	NC(=O)c1ccccc1NS(=O)(=O)Cc1ccccc1	1.6%	4%	-8%	4%
32	O=C(COC(=O)C12CC3CC(CC(O)(C3)C1)C2)NC(=O)NCc1ccco1	-0.9%	4%	1%	-4%
33	CCc1c(C)nc2[nH]nc(-c3ccccc3)n2c1=O	0.8%	13%	-5%	-2%
34	Cc1c(S(=O)(=O)NCCc2ccccc2)c(=O)n(C)c(=O)n1C	·	-14%	·	1%
35	O=C(c1ccc(-n2cnnn2)cc1)N(C1CCCCC1)C1CCCCC1	·	2%	·	2%
36	CCOC(=O)c1c(-c2ccc(OC)cc2)oc2ccc(O)cc12	·	-28%	·	-7%
37	COc1cc(C2SCC(=O)N2Cc2ccccc2)ccc1O (stereo not drawn)	·	·	·	-2%
38	Cc1ccc(OCCN2C(=O)CSC2=O)cc1	6.4%	2%	1%	-2%
39	CCCCNC(=O)c1ccc(-c2nc(CN3CCc4ccccc43)c(C)o2)cc1	-1.0%	-10%[46.1 µM]	0%	·
40	Cc1nc(N2CCN(Cc3ccccc3)CC2)nc2c1C(=O)CCC2	6.9%	-16%	-3%	3%

no.	NS1 inh	MARV entry inh	RE007 growth inh	StopGo reporter
31	-1%	8%[46.1 µM]	12%	2%
32	4%	14%	5%	-13%
33	-12%	30%[46.1 µM]	7%	37%[activator]
34	-5%	?	0%	16%
35	·	?	-10%	-10%
36	-8%	?	1%	-14%
37	1%	·	-6%	-23%
38	3%	16%	-29%	14%
39	·	·	·	?
40	4%	?	-26%	25µM*

# Quoted at random: five entries already listed.
no.	canonical_smiles	Cruzain inh Det	Lassa entry inh	Cruzain noTriton	SARS PLP yeast
36	CCOC(=O)c1c(-c2ccc(OC)cc2)oc2ccc(O)cc12	·	-28%	·	-7%
12	COc1cccc(C(=O)NC(=O)Nc2ccc(-n3nc(C(F)(F)F)cc3C(F)(F)F)cc2)c1	-1.3%	5%[46.1 µM]	-4%	·
4	COc1ccc(NC(=O)CN(C)C(=O)Cc2c[nH]c3ccccc23)cc1	·	-2%	·	-6%
7	O=C(C1CCC(=O)N1Cc1ccccc1Cl)N1CCN(c2cccc(Cl)c2)CC1 (stereo not drawn)	-4.5%	?	?	0%
15	Cc1ccc(C(=O)NCCN2CCN(C(=O)c3ccc(C)c(C)c3)CC2)cc1C	·	-3%[46.1 µM]	·	-3%

no.	NS1 inh	MARV entry inh	RE007 growth inh	StopGo reporter
36	-8%	?	1%	-14%
12	·	9%[46.1 µM]	·	-3%
4	·	5%	9%	-9%
7	-31%	3%	-11%	-28%
15	-3%	-11%[46.1 µM]	4%	-1%

# (next part)
no.	canonical_smiles	Cruzain inh Det	Lassa entry inh	Cruzain noTriton	SARS PLP yeast
41	CN(C1CCCCC1)S(=O)(=O)c1cc2c(cc1Cl)NC(=O)CO2	·	-29%[46.1 µM]	·	-6%
42	Cc1ccccc1OCCn1c(=S)[nH]c2c(N)ncnc21	·	·	·	-1%
43	COc1ccccc1NC(=O)CN1CCN(CC(=O)Nc2ccc(C)c(F)c2)CC1	·	24%[46.1 µM]	·	-3%
44	O=C(c1cc(COc2ccc(F)cc2Cl)on1)N1CC[C@@H]2CCCC[C@H]2C1	·	-1%	·	?
45	CSc1ncccc1C(=O)OCC(=O)NCc1ccccc1	·	0%	·	-5%
46	CCN1C(=O)/C(=C/c2c(C)nn(C)c2C)SC1=S	-2.4%	?	4%	-20%
47	CCn1c(CCC(=O)O)nc2cc(S(=O)(=O)N3CCOCC3)ccc21	·	-2%	·	1%
48	CCCCn1c(NCc2cc(Br)ccc2O)nc2ccccc21	-11%	8%[46.1 µM]	-15%	·
49	COc1cc(/C=N/n2c(-c3cc(C)[nH]n3)n[nH]c2=S)ccc1O	·	?	·	1%
50	COc1ccccc1CNc1ncnc2sccc12	·	?	·	-26%
51	c1ccc(CCNc2ccccn2)nc1	2.2%	4%	-3%	·
52	Cc1cc(C)c(S(=O)(=O)NCc2cn3c(C)csc3n2)c(C)c1	1.8%	18%	-12%	6%

no.	NS1 inh	MARV entry inh	RE007 growth inh	StopGo reporter
41	0%	0%[46.1 µM]	2%	-13%
42	4%	·	9%	74%[activator]
43	-12%	0%[46.1 µM]	3%	-19%
44	-1%	-7%	2%	-1%
45	·	23%	26%	-25%
46	-1%	0%	4%	-8%
47	·	-25%	-7%	-3%
48	·	·	·	0%
49	4%	-4%[46.1 µM]	16%	-5%
50	-10%	6.3µM*	2%	-28%
51	0%	7%	-4%	28%
52	-4%	-7%	-4%	2%
